Bioassay records: PubChem, several laboratories
Mtb growth = M. tuberculosis H37Rv growth inhibitors, H37Rv strain (AID 1626); 220,000 compounds, 0.95% hits; M. tuberculosis H37Rv growth inhibition; higher % means a stronger effect; inhibition, % at 10 µM, or IC50 in µM where a hit was titrated;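 active = confirmed in a dose series; inconclusive = inhibition above 80% but not taken into the dose series; inactive = below 80% or under 30% at every dose of the series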;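 also: bacteria incubated seven days before Alamar blue readout; 0% = bacteria only wells and 100% = bacteria with antibiotic wells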
Arbovirus anti = arbovirus infection inhibition; arbovirus infection cell-based antiviral screen; inhibition, % at 10 µM; 200,000 compounds, 0.37% hits;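 active = inhibition from about 30%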;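 also: bluetongue infection of BSR cells; cell survival read as ATP light after 72 h; 0% = infected wells without compound and 100% = uninfected wells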
YopH PTP inh = blocks Yersinia enterocolitica YopH tyrosine phosphatase; fluorescence Ex485/Em525; inhibition, %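 (about 10 µM by stock and volumes)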; AID 898; 140,000 compounds, 0.16% hits;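 active = inhibition of 50% or more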;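 also: controls were vehicle for no effect and minimum signal wells for full effect; inactives centre near -20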
Mtb betalactam = beta-lactam sensitization of Mtb H37Rv | M. tuberculosis H37Rv growth with meropenem, percent inhibition; hits of this screen are not shown here | inhibition, % at 25 µM | 330,000 compounds, 0.27% hits | AID 434955;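 active = about 74% or more and at least 40 points above the plate without the antibiotic, then above 30% in a dose series; inconclusive = first-round hits that could not be retested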;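 also: growth measured after seven days incubation then overnight dye step; 0% = bacteria only wells and 100% = bacteria with antibiotic; twin plates without the antibiotic show which effects depend on it; some results filed as inactive read as strong as hits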
RecA intein inh = Mtb RecA intein splicing inhibition | P9WHJ3 | cell-free RecA intein splicing, fluorescence | inhibition, %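 (about 9 µM by stock and volumes)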 | 290,000 compounds, 0.75% hits | AID 2221; in the data active = inhibition above about 30%; inconclusive = no clear call, values can overlap the other calls;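 also: 0% = vehicle wells and 100% = reference inhibitor control wells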
Target sequence (P9WHJ3 whole entry, looked up): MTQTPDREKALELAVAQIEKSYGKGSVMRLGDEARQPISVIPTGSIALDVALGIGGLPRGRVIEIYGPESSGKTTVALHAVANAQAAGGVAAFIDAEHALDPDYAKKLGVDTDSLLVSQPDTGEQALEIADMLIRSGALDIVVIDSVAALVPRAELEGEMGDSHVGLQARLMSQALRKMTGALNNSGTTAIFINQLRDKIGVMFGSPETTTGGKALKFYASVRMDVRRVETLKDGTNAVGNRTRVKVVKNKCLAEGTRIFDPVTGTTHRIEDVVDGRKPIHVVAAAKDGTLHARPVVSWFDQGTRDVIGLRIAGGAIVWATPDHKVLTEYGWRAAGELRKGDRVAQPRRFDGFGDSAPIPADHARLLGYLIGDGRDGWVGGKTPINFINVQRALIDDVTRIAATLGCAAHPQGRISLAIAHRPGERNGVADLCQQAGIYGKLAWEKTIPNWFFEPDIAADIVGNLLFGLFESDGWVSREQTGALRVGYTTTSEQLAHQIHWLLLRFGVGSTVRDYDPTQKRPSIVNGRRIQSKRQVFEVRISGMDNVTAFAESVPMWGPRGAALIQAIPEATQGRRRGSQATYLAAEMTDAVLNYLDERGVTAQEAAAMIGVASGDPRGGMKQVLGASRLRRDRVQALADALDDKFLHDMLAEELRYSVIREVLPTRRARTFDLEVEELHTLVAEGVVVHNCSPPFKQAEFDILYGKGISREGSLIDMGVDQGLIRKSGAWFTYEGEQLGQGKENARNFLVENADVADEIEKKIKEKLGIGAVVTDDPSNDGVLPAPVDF
Arbovirus anti repeat = recorded beside Arbovirus anti, whose call it bears; inhibition, %; measured here: 10K subset replicate screen; many hits read low in the repeat;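 first of two repeat runs on a subset; 0% = infected and 100% = uninfected wells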
Starred values were filed as active, the others as inactive; i = inactive; ? = inconclusive; / = no result given. An excerpt (hit frequency here may not be typical).

SMILES	Mtb growth	Arbovirus anti	YopH PTP inh	Mtb betalactam	RecA intein inh	others
COCCNC(=O)/C(C#N)=C/C=C/c1ccccc1	3%	1	/	0	2.0
COc1ccc(C(=O)OCC(=O)NC2CC2)cc1S(=O)(=O)N(C)Cc1ccccc1	/	/	/	0	3.8
O=C(Nc1cccc(-c2cn3ccccc3n2)c1)c1cccc(Cl)c1	5%	-13	-24	42	0.3
CC(=O)Nc1ccc(S(=O)(=O)N2CCCC2)cc1	/	/	/	0	2.2
Cc1ccc(C(=O)NCCNS(=O)(=O)c2ccccc2[N+](=O)[O-])cc1	/	/	/	1	-0.3
Cc1cc(OCCCC(=O)N2CCCCC2)cc(C)c1Cl	9%	-4	-20	6	6.5
O=c1oc2cc(O)ccc2cc1S(=O)(=O)c1ccccc1	/	/	/	?	i
CC(NC(=O)c1ccco1)C(=O)OC(C)C(=O)NCc1ccccc1 (stereo not given)	2%	0	/	-6	0.5
O=C(N/N=C/c1ccsc1)c1ccc2ccccc2n1	28%	1	/	-5	-1.0
COc1ccc(NC(=O)COC(=O)c2ccc(N3CCCC3=O)cc2)cc1OC	-3%	4	-51	2	-4.5
CCC1=C(OC(=O)N(CC)CC)N2C(=O)OC(=NCCOC)[C@]2(Cc2ccccc2)[C@H]2C1=CC[C@H]1C(=O)N(CC)C(=O)[C@H]12	-1%	/	/	-2	-0.8
CCCc1cc(=O)[nH]c(SCC(=O)c2[nH]c(C)c(C(=O)OCC)c2C)n1	-12%	9	-21	-1	-1.6
Cc1cc(C(=O)OC(C)C(=O)Nc2cccc(S(=O)(=O)N3CCOCC3)c2)c(C)o1 (stereo not given)	6%	1	-18	-5	0.6
COc1ccc(C(OC(=O)c2ccco2)C(=O)NCc2ccc(C)cc2)cc1 (stereo not given)	8%	10	26	4	2.6
CC1CCN(S(=O)(=O)c2ccc(NC(=O)C3CCN(C(=O)c4ccco4)CC3)cc2)CC1	/	/	/	3	2.3
O=C(Nn1cnnc1)c1cc(-c2cccc(Br)c2)nc2ccccc12	-4%	/	/	4	-2.2
Cc1ccc(N2C(=O)CC(N3CCN(c4ccccn4)CC3)C2=O)cc1 (stereo not given)	-3%	2	/	2	/
COc1cccc2[nH]c3c(Cl)ncnc3c12	13%	11	-3	-13	-9.0
Cn1c(=O)c2c(nc(Cl)n2Cc2ccc(Cl)c(Cl)c2)n(C)c1=O	/	-1	-69	-8	2.6
O=C(CCC(=O)c1ccc(Br)cc1)Nc1cccc(C(F)(F)F)c1	1%	13	-3	-2	-1.1
Cc1ccccc1N1CCN(C2CCCN(C(=O)COc3ccccc3)C2)CC1 (stereo not given)	/	/	/	?	-1.3
N[C@@H](Cc1ccccc1)C(=O)N1C[C@H]2C[C@@H](C1)c1cccc(=O)n1C2	/	/	/	-5	1.4
Cc1ccc(C)c(N2CCN(C(=O)CCS(=O)(=O)c3ccc4c(c3)NC(=O)C(C)S4)CC2)c1 (stereo not given)	/	/	/	10	-1.4
Cc1nnc(SCc2cc(=O)[nH]c(/N=C(\N)Nc3ccccc3Sc3ccccc3)n2)s1	1%	-4	/	1	0.6
CCNc1nc(CSc2ccccc2)nc2sc(C)c(C)c12	11%	-8	-16	0	15
Cn1cc(C(=O)c2ccc(Cl)cc2)cc1-c1nc2ccccc2n1C	65%	5	-19	92	5.9
CN(C(=O)COC(=O)c1nn(C)c(=O)c2ccccc12)c1c(N)n(Cc2ccccc2)c(=O)[nH]c1=O	/	/	/	-6	-1.1
NS(=O)(=O)c1ccc(NCc2cc(Cl)ccc2OCc2ccc(F)cc2)cc1	13%	-36	-12	-8	6.7
Cc1cc(/C=C2/C(=N)N3C(=NC2=O)SN=C3S(C)(=O)=O)c(C)n1-c1ccccc1F	0%	8	/	-5	3.2
CCCn1c(C)nnc1SCC(=O)NC1CCCCC1	/	/	/	-5	-1.8
C=CCOc1ccc(C2C(C#N)=C(N)N(Nc3ccccc3)C3=C2C(=O)CC(C)(C)C3)cc1OC (stereo not given)	20%	-5	-32	98	0.8
O=[N+]([O-])c1ccc(SCCO)nc1SCCO	9%	/	/	-6	1.1
COc1ccc(CCn2c(=S)[nH]c3ccc(N4CCOCC4)cc3c2=O)cc1OC	-1%	17	/	-6	-4.3
Cc1cnc(NC(=O)C(C)N2C(=O)C3CC=CCC3C2=O)s1 (stereo not given)	7%	6	-37	0	-7.6
O=C(O)CN1C(=O)/C(=C\c2cccc(OCc3ccccc3)c2)SC1=S	/	/	/	2	8.9
COc1ccc2cc(C(=O)NCCO)sc(=O)c2c1OC	-63%	-1	-30	-9	-4.1
O=c1[nH]cnc2cc(Cl)ccc12	/	-5	-41	2	/
COc1ccccc1OCCOC(=O)Nc1ccccc1	3%	5	-21	-1	1.2
O=C1C(Cl)=C(NC(=O)c2ccccc2)C(=O)C(Cl)=C1NC(=O)c1ccccc1	/	/	/	17	23
COc1ccccc1-c1nc(SCC(=O)O)n[nH]1	-2%	-2	-28	1	0.6
COc1cc(NS(=O)(=O)c2ccc(N/C=C(\C=O)c3nc4ccccc4o3)cc2)nc(OC)n1	7%	-3	-29	4	0.2
CCN(CC)C(=O)C1=C(C)Nc2ncnn2C1c1cccnc1 (stereo not given)	-1%	3	/	-6	3.1
COc1ccc2c(c1)C(C)CC(C)(C)N2C(=O)NC1CCCCC1 (stereo not given)	-1%	-3	-23	6	/
Cc1ccc(S(=O)(=O)N2CC=C(C(=O)NCCC(C)C)CC2)cc1	5%	/	/	-6	1.8
Cn1c(=S)[nH]c2c(c1=O)C(C)(C)Cc1ccccc1-2	59%	3	/	9	0.6
O=C(CCc1ccccc1)NC1C2CC3CC(C2)CC1C3 (stereo not given)	/	/	/	100	1.2
O=C(c1ccc(S(=O)(=O)N2CCCCCC2)cc1)N1CCCC(C(F)(F)F)C1 (stereo not given)	/	/	/	4	-2.5
Cc1cnc(-c2nnc(N(C)C(=O)C3CCOC3)s2)cn1 (stereo not given)	/	-12	-15	-11	2.3

Part of the list above in order of heavy-atom count, lowest first:
SMILES	Mtb growth	Arbovirus anti	YopH PTP inh	Mtb betalactam	RecA intein inh	others
O=c1[nH]cnc2cc(Cl)ccc12	/	-5	-41	2	/
COc1ccc2c(c1)C(C)CC(C)(C)N2C(=O)NC1CCCCC1 (stereo not given)	-1%	-3	-23	6	/
O=C(c1ccc(S(=O)(=O)N2CCCCCC2)cc1)N1CCCC(C(F)(F)F)C1 (stereo not given)	/	/	/	4	-2.5

(listing goes on)
SMILES	Mtb growth	Arbovirus anti	YopH PTP inh	Mtb betalactam	RecA intein inh	others
CCc1ccccc1NC(=S)N(CCCN(C)C)Cc1cc2cc3c(cc2[nH]c1=O)OCO3	4%	1	/	-5	12
O=S(=O)([O-])C/C(=C\c1ccc(Cl)cc1)c1cc[n+](CCO)cc1	-1%	5	/	-2	-1.5
c1ccc(C2CSc3ccccc3N2)cc1 (stereo not given)	/	/	/	7	-3.8
Cc1cc(C)nc(NC2=NCC(=O)N2c2ccc(F)c(Cl)c2)n1	0%	5	3	65	3.3
O=C(/C=C/c1c(Cl)cccc1Cl)N1CCN(c2ncccn2)CC1	-3%	3	-33	5	3.4
O=C1CCCCC1Sc1nnc(Cc2cccs2)n1CCc1ccccc1 (stereo not given)	-2%	6	3	6	/
Fc1ccc2nc(Nc3nc4cc5c(cc4s3)OCO5)sc2c1	17%	-5	-27	77	-0.9
CCN1CCN(c2ccc(NC(=O)c3cnccn3)cc2)CC1	-2%	13	/	7	-0.4
Clc1ccccc1-c1nc2ccccc2c2nc3ccccc3n12	-4%	-8	-21	2	0.3
O=C(NC(C(=O)c1ccccc1)N1CCCCC1)c1ccccc1 (stereo not given)	-6%	3	-30	0	4.4	Arbovirus anti repeat=2
Cn1c(-c2ccc3c(c2)OCO3)cnc1NCc1ccccc1	-6%	-11	-23	3	-0.5
Cc1ccc(NC(=O)CSc2ccc3nnc(CCNC(=O)c4ccccc4)n3n2)c(C)c1	-1%	-1	0	-6	-0.8
CCCOc1ccc(C(=O)NCC(c2ccco2)N(C)C)cc1 (stereo not given)	2%	-2	-21	-3	-0.6
CC(C)C(C)NC(=O)COc1ccc(-c2ccccc2)cc1 (stereo not given)	14%	1	2	68	1.5
Cc1ccc(NC(=O)CCN2CCN(C/C=C/c3ccccc3)CC2)cc1	-9%	-8	-15	-14	/
CC(=O)NCCC(=O)N1CCc2c([nH]c3ccccc23)C1c1cccc(Cl)c1 (stereo not given)	2%	-15	/	1	2.5
COc1ccc2oc(C(=O)N3CCN(c4ncccn4)CC3)c(C)c2c1	/	/	/	2	1.3
CN1C(=O)C(O)(C2COC(C)(C)CC2=O)c2cc(Br)ccc21 (stereo not given)	-6%	-4	-29	24	6.1
COc1ccc(S(=O)(=O)N(CCCN2CCOCC2)Cc2cccc(OC)c2OC)cc1	4%	-2	-14	-5	-7.2
Nc1ccccc1Sc1ccccc1[N+](=O)[O-]	5%	4	-25	-8	-0.9
CCCCN(C(=O)C1CCC1)c1c(N)n(CCC)c(=O)[nH]c1=O	/	/	/	-14	1.1
COC(=O)c1ccc(C23CC4(C2)[C@H](CN(Cc2ccc(-c5ccccc5)cc2)[C@@H]4c2ccccc2)C3c2ccccc2)cc1 (stereo not given in full)	2%	/	/	-2	2.5
CC(C)N(Cc1ccccc1)C(=O)CN1C(=O)NC(Cc2ccccc2)(c2ccccc2)C1=O (stereo not given)	/	/	/	-6	-6.1
CNC(=O)COc1coc(CN2CCN(C(=O)c3ccco3)CC2)cc1=O	/	/	/	-3	-1.4
CCn1c(=O)cc(OCC(=O)Nc2cccc(C)n2)c2ccccc21	1%	-4	-10	2	-3.1
O=C(COC(=O)Cc1ccc(F)cc1)NC1CCS(=O)(=O)C1 (stereo not given)	/	/	/	-4	-2.0
C=C(C)COc1ccc(-c2ncncc2-c2ccccc2OC)c(O)c1	/	/	/	4	13
c1ccc(COc2cccc(CN3CCc4ccccc4C3)c2)cc1	/	/	/	0	-2.9
O=C(c1ccccc1)c1cnc(Nc2ccccc2Cl)s1	-1%	-16	-30	3	6.7
COC(=O)c1cc(C)sc1NC(=O)C1C2C=CC(CC2)C1C(=O)O (stereo not given)	4%	5	-40	-1	-1.2
CCCCCOC(=O)Cc1c(O)c2ccccc2[nH]c1=O	-2%	4	-35	5	-0.1
O=C(N/N=C/c1cn(-c2ccccc2)nc1-c1ccccc1)c1ccco1	-1%	-6	-38	73	2.4
COc1cc(NC(=O)Nc2cc(C)on2)cc(OC)c1OC	/	/	/	-8	-0.2
COc1ccc(CN2CCCC(C(=O)c3ccc(Cl)cc3)C2)c(O)c1 (stereo not given)	/	/	/	7	-1.4
CC(NC(=O)COC(=O)c1ccc(Cl)cc1O)c1ccc(F)cc1 (stereo not given)	-1%	7	/	4	1.9
COc1ccc(C(=O)C2CCCN(C(=O)/C=C/c3ccccn3)C2)c(C)c1 (stereo not given)	-1%	3	/	-12	2.5

Random excerpt: four entries already listed.
SMILES	Mtb growth	Arbovirus anti	YopH PTP inh	Mtb betalactam	RecA intein inh	others
O=C(c1ccccc1)c1cnc(Nc2ccccc2Cl)s1	-1%	-16	-30	3	6.7
COc1ccc(C(=O)C2CCCN(C(=O)/C=C/c3ccccn3)C2)c(C)c1 (stereo not given)	-1%	3	/	-12	2.5
O=C(N/N=C/c1cn(-c2ccccc2)nc1-c1ccccc1)c1ccco1	-1%	-6	-38	73	2.4
COC(=O)c1cc(C)sc1NC(=O)C1C2C=CC(CC2)C1C(=O)O (stereo not given)	4%	5	-40	-1	-1.2

New compounds follow
SMILES	Mtb growth	Arbovirus anti	YopH PTP inh	Mtb betalactam	RecA intein inh	others
Cc1cc(-c2ccccc2)nc(SCC(=O)N2CCCC2)n1	3%	-4	/	3	-1.8
CCOC(=O)C1CCCN(S(=O)(=O)c2ccc(S(N)(=O)=O)cc2)C1 (stereo not given)	-3%	9	/	-9	-0.9
CN1CCN(CC(=O)N(Cc2c(C#N)c3ccccc3n2C)c2ccccc2)CC1	2%	3	-22	0	-1.0
O=C(O)c1c2c(nc3ccccc13)/C(=C/c1ccc(O)cc1)CCC2	7%	2	/	-3	-2.2
Cc1ccc(CC2C(=O)N(c3nc(C)cc(C)n3)C(=O)C2C)cc1 (stereo not given)	-5%	9	/	-2	1.5
CCC(=O)N(Cc1ccco1)c1nc(-c2cc(OC)ccc2OC)cs1	-6%	-5	27	-3	-0.2
CC(c1ccccc1)N1CCn2c(nc3cc(NC(=O)c4cccs4)ccc32)C1 (stereo not given)	10%	-18	18	-4	6.6
CSCCCNC(=S)Nc1cccc(S(=O)(=O)NC2=NCCC2)c1	2%	6	/	0	1.2
CC(C)C[C@H]1CN=C(Nc2ccccc2)N1CCC1CCCCC1	/	/	/	6	2.6
Cc1oc(C(=O)O)cc1CSc1nnc(-c2ccccc2)n1C	4%	8	-18	-1	/
